Lassa entry inh = blocks Lassa virus binding to or entry into cells. Potency, µM (titrated, usually from 37.9 µM), without a hit: at the highest dose activity change, negative = inhibition, most hits filed as inhibitors. 1.2% of 300,000 active. AID 540256. Lassa virus pseudotype entry inhibition, cell reporter; control for the full effect not named in the record; active means well fitted inhibition curve with a large enough effect; inconclusive means small, poorly fitted or top-dose-only effect, or effect the other way; inactive means flat fitted curve, though single readings scatter; tested in HEK293 cells; also: % is scaled to controls: 0 for no effect and ±100 for the full control effect; nearly all actives have a fitted effect of over 50% in size; luciferase read-out
NS1 function inh = influenza NS1 inhibition. 0.4% of 270,000 active. S. cerevisiae slowed by influenza A NS1, growth recovery by OD600. Potency, µM (highest dose often 46.1 µM), for inactives: top-dose activity, positive = more growth; active means well fitted rising curve with a large enough effect; inconclusive means small, poorly fitted or top-dose-only effect; inactive means no such curve, though single readings can be large or run the other way; also: nearly all actives have a fitted effect of over 50% in size
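S. cerevisiae expressing influenza A NS1, grown in glucose, washed, then diluted 1:100 into pH 6.0 -URA galactose medium with 23 nl compound. Growth recovery read as OD600; NS1-free strain serves as control.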
2A StopGo = FMDV 2A StopGo reporter, luciferase signal; human cells with a luciferase reporter of 2A StopGo recoding; control for the full effect not named in the record; Potency, µM (titrated, usually from 57.9 µM), without a hit: top-dose signal change, negative = less light; 1.2% of 410,000 active; AID 1159524; active = well fitted falling curve with a large enough effect; inconclusive = small, poorly fitted or top-dose-only effect; inactive = no such curve, though single readings can be large or run the other way; tested in HEK293T cells; also: % is scaled to controls: 0 for no effect and ±100 for the full control effect; nearly all actives have a fitted effect of over 45% in size; luciferase light after 4 h
RE007 growth inh = less growth of the S. pombe RE007 Vpr strain; S. pombe RE007 Vpr strain, BacTiter-Glo ATP luminescence, 24 h; control for the full effect not named in the record; Potency, µM (top dose mostly 92.2 µM), without a hit: at the top dose activity change, negative = less growth; 0.21% of 360,000 active; AID 651644; active = well fitted falling curve with a large enough effect; inconclusive = small, poorly fitted or top-dose-only effect; inactive = no such curve, though single readings can be large or run the other way;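 also: % is scaled to controls: 0 for no effect and ±100 for the full control effect; nearly all actives have a fitted effect of over 50% in size; the assay follows cell death caused by Vpr and the record does not say whether a fall means rescue or toxicity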
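Fission yeast RE007 carrying one integrated HIV-1 vpr copy, seeded at OD 0.01 in PMG+AL medium with 23 nL pinned compound. Grown 24 h at 30 degrees; viability read by BacTiter-Glo luminescence after 5 min.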
Cruzain noTriton = inhibitors of Trypanosoma cruzi cruzain without detergent | 2.3% of 200,000 active | Potency, µM, inactives show max response, negative = inhibition, usual class: inhibitors | P25779 | purified cruzain, Z-FR-AMC fluorescence, no detergent | AID 1476;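 also: plate controls were enzyme without inhibitor for no effect and buffer without enzyme for full effect; nearly all actives have a fitted effect of over 40% in size; top concentration of the series not given in the record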
Target sequence (P25779 123-467 limits assumed): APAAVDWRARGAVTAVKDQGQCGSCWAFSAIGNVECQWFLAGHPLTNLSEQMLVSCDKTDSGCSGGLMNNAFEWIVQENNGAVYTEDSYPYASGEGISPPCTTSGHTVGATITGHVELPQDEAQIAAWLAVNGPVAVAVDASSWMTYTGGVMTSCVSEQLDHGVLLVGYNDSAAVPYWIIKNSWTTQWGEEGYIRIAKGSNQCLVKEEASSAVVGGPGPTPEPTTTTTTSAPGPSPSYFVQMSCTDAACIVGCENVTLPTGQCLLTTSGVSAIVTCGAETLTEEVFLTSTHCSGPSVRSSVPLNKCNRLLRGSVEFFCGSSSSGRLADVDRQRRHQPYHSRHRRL
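Purified cruzain at 1.5 nM, pre-incubated 15 min with compound at room temperature in 100 mM sodium acetate pH 5.5, 5 mM DTT, 0.00005% Triton X-100. Reaction started with 2 uM Z-FR-AMC; AMC fluorescence increase over 60 s gives rate.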
SARS PLpro yeast = SARS-CoV PLP inhibition in yeast. S. cerevisiae expressing SARS-CoV PLpro, growth rescue; control for the full effect not named in the record. Potency, µM (highest dose often 32.9 µM), for inactives: at the top dose activity, positive = growth rescue. 0.19% of 330,000 active; active means well fitted rising curve with a large enough effect; inconclusive means small, poorly fitted or top-dose-only effect; inactive means no such curve, though single readings can be large or run the other way; also: 0% is about no effect; nearly all actives have a fitted effect of over 55% in size; growth read by luminescence after 48 h
MARV entry inh = inhibitors of Marburg virus binding or cell entry. Potency, µM (series often up to 37.8 µM), for the others: at the highest dose activity change, negative = inhibition, most hits filed as inhibitors. 1.8% of 300,000 active. AID 540276. Marburg virus pseudotyped entry inhibition, cell reporter; control for the full effect not named in the record; about a third of the inactives were read at about 46 µM; active = well fitted inhibition curve with a large enough effect; inconclusive = small, poorly fitted or top-dose-only effect, or effect the other way; inactive = flat fitted curve, though single readings scatter; tested in HEK293 cells; about a fifth of its hits are not listed in these tables; also: % is scaled to controls: 0 for no effect and ±100 for the full control effect; luciferase read-out
Cruzain inh Det = blocks cruzain activity in presence of Triton detergent | P25779 | purified cruzain, Z-FR-AMC fluorescence, 0.01% Triton | Potency, µM, without a hit: max response, negative = inhibition, actives largely listed as inhibitors | 0.43% of 200,000 active | AID 1478;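 also: plate controls were neutral wells for no effect and buffer without enzyme for full effect; nearly all actives have a fitted effect of over 40% in size; top concentration of the series not given in the record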
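Sodium acetate buffer (100 mM, pH 5.5) containing 5 mM DTT and 0.01% Triton X-100 hosted 1.5 nM cruzain and test compound for 15 min at room temperature. Cleavage of 2 uM Z-FR-AMC was then tracked by fluorescence.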
* marks the source's active call; other numbers are inactive results; ? = inconclusive; / = not tested or not shown; & = joins results of further samples; [ ] = another dose, or the depositor's remark. Unless noted, calls follow the shape of the dose curve; as a rule, active = well fitted curve in the direction sought with a large enough effect; inconclusive = small, poorly fitted or top-dose-only effect, or another doubt; inactive = no such curve, though single readings can be large; an effect the other way counts as inactive or inconclusive. Potency is read from the fitted curve at half-maximal effect.

SMILES	Lassa entry inh	NS1 function inh	2A StopGo	RE007 growth inh	Cruzain noTriton	SARS PLpro yeast	MARV entry inh	Cruzain inh Det
O=C(N/N=C/c1ccco1)c1cc([N+](=O)[O-])cc([N+](=O)[O-])c1	18.0%	16.1%	-29.4%	-6.5%	-0.8%	-6.1%	?	-5.2%
COc1ccc(C(=O)OCC(=O)c2ccccc2)cc1S(=O)(=O)N1CCOCC1	9.5%	4.3%	19.0%	2.1%	?	8.2%	-12.9%	-2.8%
O=C(CNC(=O)c1cccs1)NCC(=O)OCc1ccc(F)cc1	/	4.8%	24.1%	1.3%	/	0.2%	/	/
CC(C)(C#N)NC(=O)C1CCCN1S(=O)(=O)c1ccc2ccccc2c1 (stereo unspecified)	-15.5%[46.1 µM]	27.9%	4.5%	-8.9%	/	2.7%	-20.3%[46.1 µM]	/
COc1ccc(-c2cc(=O)c3ccccc3n2C)cc1	?	-17.1%	3.5%	?	0.0%	12.9%	-13.5%	-3.6%
CCN(C(=O)COC(=O)c1cnc(C)cn1)C1CCCCC1	16.6%	-1.7%	3.0%	1.8%	-3.1%	-2.9%	11.3%	3.3%
Cc1ccc(NC(=O)CN2CCCN(Cc3cc(C)ccc3C)S2(=O)=O)c(Cl)c1	23.0%[46.1 µM]	/	-22.4%	/	8.2%	/	/	-8.1%
O=C(O)CC12CC3CC(C1)CC(n1ncc(NCc4ccccc4)c(Cl)c1=O)(C3)C2	?	-4.9%	-0.6%	-5.5%	/	7.9%	15.0%[46.1 µM]	/
COc1ccc(C)cc1NC(=O)Cn1cnc2sc(C)c(S(=O)(=O)N3CCOCC3)c2c1=O	-1.1%	-15.3%	0.8%	5.4%	2.9%	15.2%	-12.2%&-12.2%	-0.7%
CCC(C)NC(=O)C1CCC(CNS(=O)(=O)c2cccc3nsnc23)CC1 (stereo unspecified)	10.0%&15.1%[46.1 µM]	2.6%	-5.5%&-4.5%	-7.3%	0.0%	5.2%	23.7%&-8.0%[46.1 µM]	-0.2%
COCCNC(=O)c1nn(-c2ccc(Cl)cc2)nc1CO	6.5%[46.1 µM]	/	-0.8%	/	2.8%	/	-10.1%[46.1 µM]	-0.4%
CCC(CC)c1nnc(NC(=O)CCN2C(=O)c3ccccc3C2=O)s1	2.6%	-0.7%	-24.0%	6.4%	9.4%	-1.0%	-1.4%[46.1 µM]	-1.9%
CCOc1ccc2[nH]c3c(NCCOC)ncnc3c2c1	/	4.6%	31.2%[activator]	8.7%	/	0.6%	/	/
Cc1nn2c(=O)cc(CSc3ccccc3NC(=O)c3ccccc3)nc2s1	28.8%[46.1 µM]	-0.9%	-3.4%	-10.6%	/	-1.0%	21.2%[46.1 µM]	/
N#Cc1ccc(S(=O)(=O)N2CCN(C(=O)[C@@H]3CCCN3C(=O)c3cccs3)CC2)cc1	-13.5%	/	-10.8%	-3.1%	/	-0.8%	-1.5%	/
CC1CCCC(NC(=O)c2n[nH]c(=O)c3ccccc23)C1C (stereo unspecified)	-1.0%	?	32.1%[activator]	10.8%	-22.7%	2.3%	10.7%	3.7%
C=CCNC(=O)Nc1ccc(F)cc1F	?	/	-5.8%	0.8%	/	-0.8%	?	/
CC1(C)CC(=O)C2=C(C1)N(CCN1CCOCC1)C1=C(C(=O)CC(C)(C)C1)C2c1ccc(Cl)cc1	/	-13.8%&1.2%	-3.2%	10.1%	/	0.0%	/	/
Cc1ccc(-c2cc3ccccc3nc2N2CCCC2)cc1	9.0%	-13.5%	-22.7%	-27.0%	6.5%	1.7%	?	-5.7%
CCC(C)c1ccccc1NC(=O)c1cccc(-n2cnnn2)c1 (stereo unspecified)	-10.4%[46.1 µM]	/	-8.2%	17.9%	/	1.5%	?	/
COc1ccc(C2NC(=O)N(C)C3=C2C(=O)N(c2ccc(Br)cc2)C3)cc1 (stereo unspecified)	0.3%[46.1 µM]	/	-16.7%	/	?	/	/	-8.7%
O=C(COC(=O)C12CC3CC(CC(Cl)(C3)C1)C2)N1CCCCC1	0.0%[46.1 µM]	/	11.6%	9.4%	/	-8.1%	?	/
O=C(c1cc(-c2ccc(Cl)cc2Cl)on1)N1CCCC1	3.55µM*	-31.1%	-42.5%	-10.6%	/	-4.3%	?	/
CCOCCCNC(=O)Cc1ccc(-n2c(CC)nc3cccnc32)cc1	/	7.4%	-3.3%	9.5%	/	0.9%	/	/
CCc1nnc2c3ccccc3nc(N3CCN(c4cc(C)ccc4C)CC3)n12	?	/	-19.1%	/	5.4%	/	/	-2.3%
NCCCC[C@H]1CNC(=O)C(=O)N1CC1CCCCC1	/	0.8%	10.2%	-14.9%	/	1.3%	/	/
COc1ccc(-c2cc(C(=O)Oc3ccc([N+](=O)[O-])cc3)c3ccccc3n2)cc1	-9.3%	6.1%	-21.6%	?	?	-6.2%	3.1%	-9.4%
Cc1ccn2c(Nc3c(C)cccc3C)c(-c3ccc(Cl)s3)nc2c1	-5.3%[46.1 µM]	/	?	/	10µM*	/	-26.3%[46.1 µM]	-12.1%
CCOC(=O)Cn1c2ccc(C)cc2c2nc(C)sc21	?	/	-20.0%	1.1%	/	-7.3%	-14.9%	/
Cc1ccccc1-n1c(-c2cccnc2)n[nH]c1=S	2.1%	1.9%	-8.6%	3.7%	-3.1%	/	-1.8%	1.3%
O=C(COc1ccccc1Cl)N1CCCC1	14.9%	-0.6%	20.0%	-21.3%	-6.5%	-0.3%	?	2.6%
Cc1nn(C)cc1CN(C)C(=O)CC12CC3CC(CC(C3)C1)C2	22.9%	-14.7%	-9.8%	10.6%	-2.6%	-2.8%	-0.4%	3.4%
CCn1c(CNc2ccc(OC)cc2)nnc1SCC(=O)c1ccc(OC)cc1	-2.6%	?	-0.3%	-3.1%	0.3%	-8.5%	-0.2%&-0.2%	-7.9%
CC1(C)CC(=O)C2=C(C1)N(CC1CCCO1)C(=O)C2(NC(=O)c1cccnc1)C(F)(F)F (stereo unspecified)	?	-0.9%	6.9%	8.0%	-1.3%	-1.2%	?	-4.8%
CN1CCN(S(=O)(=O)c2ccc3c(c2)OCCO3)CC1	?	4.4%	-18.8%	-8.4%	-4.2%	-13.6%	13.4%	-1.7%
N#C/C(=C\c1cccnc1)C(=O)Nc1ccc(SC(F)F)cc1	1.6%	0.7%	-16.9%	1.7%	/	-1.0%	-2.7%	/
CC(C)n1ncc2c(C(=O)N3CCN(Cc4ccc(Cl)s4)CC3)cc(C3CC3)nc21	-19.2%	/	?	13.0%	/	-2.0%	?	/
CCC1(CC)NC(=O)N(CC(=O)Nc2cccc3ccccc23)C1=O	9.3%	/	1.1%	-0.9%	/	8.4%	?	/
COc1ccc(S(=O)(=O)CCC(=O)Nc2c(C)cccc2C)cc1	/	7.0%	-16.9%	-4.3%	/	1.9%	/	/
O=C(Nc1cccc(Cl)c1)Nc1ccc2c(c1)OCO2	?	-20.7%	56.3%[activator]	-8.0%	?	-21.5%	?	-5.9%
CCCCCCc1ccc(OC(=O)c2ccncc2)cc1	/	2.6%	14.6%	6.4%	/	-0.6%	/	/
CC1CCCCC12NC(=O)N(CC(=O)Nc1ccccc1N1CCOCC1)C2=O (stereo unspecified)	/	/	-7.9%	-0.6%	/	-0.2%	2.5%[46.1 µM]	/
COc1ccc(C(=O)Nc2ccc(N3CCCC3)cc2)cc1	4.8%	10.2%	17.5%	-22.3%	10µM*	-12.8%	-15.3%	?
CCOc1ccc(OCc2ccc(C(=O)O)o2)cc1	?	-6.3%	8.91µM*	18.3%	-3.5%	2.0%	?	0.0%
NC(=S)NNC(=O)c1ccccc1	19.9%	11.1%	0.0%	4.5%	0.6%	-0.4%	?	-1.4%
CCOc1ncccc1C(=O)N(C)CC1COc2ccccc2O1 (stereo unspecified)	4.0%	-0.5%	-16.5%	-16.1%	2.8%	30.0%	10.0%	-4.2%
COc1ccc(CCC(=O)NCc2cn3ccccc3n2)cc1	/	-0.8%	3.3%	-13.8%	/	-0.2%	/	/
O=C1C2CC=C(Cl)CC2C(=O)N1CNc1ccccn1 (stereo unspecified)	?	3.5%	-9.4%	27.6%	4.0%	1.9%	8.5%	4.2%
CC(=O)Nc1ccc(NC(=O)COC(=O)c2c3c(nc4ccccc24)CCN(Cc2ccccc2)C3)cc1	?	10.4%	?	1.1%	-9.4%	1.3%	?	-14.7%
CC(=O)Nc1ccc(C(=O)OCC(=O)Nc2ccc(S(=O)(=O)N3CCOCC3)cc2)cc1	-1.5%	/	-21.8%	?	/	-16.6%	24.1%	/
CCCC(=O)Nc1ccc(-c2csc(N/N=C\c3ccncc3)n2)cc1	?	6.0%	-10.6%	3.2%	/	-0.9%	?	/

Reformatted with each value named: 4 of the compounds above.
O=C1C2CC=C(Cl)CC2C(=O)N1CNc1ccccn1 (stereo unspecified)
  Lassa entry inh: ?; NS1 function inh: 3.5%; 2A StopGo: -9.4%; RE007 growth inh: 27.6%; Cruzain noTriton: 4.0%; SARS PLpro yeast: 1.9%; MARV entry inh: 8.5%; Cruzain inh Det: 4.2%

CCOc1ccc(OCc2ccc(C(=O)O)o2)cc1
  Lassa entry inh: ?; NS1 function inh: -6.3%; 2A StopGo: 8.91µM*; RE007 growth inh: 18.3%; Cruzain noTriton: -3.5%; SARS PLpro yeast: 2.0%; MARV entry inh: ?; Cruzain inh Det: 0.0%

CC(=O)Nc1ccc(NC(=O)COC(=O)c2c3c(nc4ccccc24)CCN(Cc2ccccc2)C3)cc1
  Lassa entry inh: ?; NS1 function inh: 10.4%; 2A StopGo: ?; RE007 growth inh: 1.1%; Cruzain noTriton: -9.4%; SARS PLpro yeast: 1.3%; MARV entry inh: ?; Cruzain inh Det: -14.7%

CCCC(=O)Nc1ccc(-c2csc(N/N=C\c3ccncc3)n2)cc1
  Lassa entry inh: ?; NS1 function inh: 6.0%; 2A StopGo: -10.6%; RE007 growth inh: 3.2%; Cruzain noTriton: /; SARS PLpro yeast: -0.9%; MARV entry inh: ?; Cruzain inh Det: /
